BJeLR viability – BJeLR cell viability loss. BJeLR (HRASV12) viability, CellTiter-Glo ATP luminescence, 48 h; reference of the scale not given here. inhibition, % (test concentration not listed). 300,000 tested, 0.17% active;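 active = replicate mean above 50%; inconclusive = above 50% but judged a plate artefact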;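 note: 50 nL library stock added to about 25 µL; numbers are from one replicate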
Mtb hypoxia inh – inhibitors of hypoxia-regulated fluorescent reporter in Mycobacterium tuberculosis; M. tuberculosis hypoxia-regulated fluorescent reporter, fluorescence; fluorescence inhibition, % (concentration not given with the values); 300,000 tested, 0.1% active; AID 1159583;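 active = 35 to 45% if threefold the growth effect, above 45% if 1.5-fold the growth effect; inactive = the rest, general growth blockers included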;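 note: wells of about 50 µL received 100 nL stock; 0% = vehicle wells and 100% = reference inhibitor wells; whole bacteria with a GFP reporter of the hypoxia response; strong numbers were not always called active; many hits fall short of the cut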
PrP 5UTR inh – suppresses PrP 5' UTR mRNA reporter expression. cell-based PrP 5' UTR mRNA reporter, plate reader. inhibition, % (no concentration beside the values). 340,000 tested, 0.35% active;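 active = every replicate at 50% or more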;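 note: 0 = median of the neutral control wells; tested in H4 reporter cells; numbers are from one replicate; inactives centre near -14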
RN4220 kill – kills Staphylococcus aureus RN4220; S. aureus RN4220 growth, OD600, 16 h; inhibition, % (concentration not given with the values); 330,000 tested, 0.33% active;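 active = z-score of -3 or lower and OD600 up to 0.18 on both plates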;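 note: plate controls were untreated cells for no effect and reference antibiotic for full effect; stock transfer was 100 nL into about 80 µL; one replicate is shown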
Sa ugtP lethal – kills S. aureus RN4220 lacking UgtP; S. aureus RN4220 ugtP deletion, OD600 growth, 16 h; some inactives read as strong as hits; growth inhibition, % (no concentration beside the values); 330,000 tested, 0.54% active;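 active = z-score under -3 and OD600 up to 0.15 on both plates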;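 note: plate controls were untreated wells for no effect and antibiotic for full effect; wells of about 80 µL received 100 nL stock; the first replicate is given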
Autofluor counter – compound fluorescence in toxin protease inhibitor counterscreen; fluorescence intensity (test concentration not listed); 360,000 tested, 3.1% active; compound autofluorescence counterscreen, microsphere flow cytometry; active compounds read high;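 active = at least 3 SD above the mean of all compounds, about 16000 in these data; inconclusive = too few beads counted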;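 note: 100 nL of 1 mM stock went into each well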
Mtb hypoxia inh growth – further read-out of Mtb hypoxia inh, marked with its call; growth inhibition, %; measured here: M. tuberculosis growth (absorbance);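 0% = vehicle and 100% = reference antibiotic; read after six days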
Active calls of the source: *; ? = inconclusive; / = not tested or not shown.

cpd	SMILES	RN4220 kill	BJeLR viability	Mtb hypoxia inh growth	Sa ugtP lethal	PrP 5UTR inh	Autofluor counter	Mtb hypoxia inh
1	CCN(C(=O)CN1C(=O)S/C(=C\c2ccc(F)cc2)C1=O)C1CCS(=O)(=O)C1 (stereo not drawn)	7.4	5	1	5	3	5916	0
2	O=C(NCc1ccccn1)C1CC(c2ccc(F)cc2)=NO1 (stereo not drawn)	0.9	-2	20	0	-18	3814	19
3	c1ccc(C2[C@H]3CN(Cc4cccnc4)[C@H](c4ccccc4)C34CC2(c2cccnc2)C4)cc1 (stereo partly drawn)	/	11	/	/	-4	4085	/
4	O=C(O)c1nn(CC(=O)N2CCN(c3ccccc3)CC2)c(=O)c2ccccc12	1.0	1	3	0	-10	4026	8
5	Cc1ccc(C)c(-c2nn(-c3cc(N4CCN(CCO)CC4)ccc3[N+](=O)[O-])c(=O)c3ccccc23)c1	3.6	-12	7	-2	/	14384	4
6	O=C(c1ccco1)N1CCN(Cc2cn[nH]c2-c2ccc(F)cc2F)CC1	2.4	-2	-4	3	-25	2751	3
7	CC(CCS(=O)(=O)c1ccccc1)=NO	0.8	/	-2	2	/	/	-6
8	COc1ccc2oc(C(=O)OCC(=O)Nc3ccc(N4CCOCC4)cc3)c(C)c2c1	3.8	-3	-5	1	-22	7369	4
9	COC(=O)C1=C(C)N=c2sc(=Cc3cccs3)c(=O)n2C1c1ccc(F)cc1 (stereo not drawn)	1.0	/	6	-12	/	/	2
10	CSc1cccc(NC(=O)C2CCN(S(C)(=O)=O)CC2)c1	7.2	0	3	-4	-21	10408	16
11	CCOc1ccccc1C(=O)NC(C)c1ccc2c(c1)OCO2 (stereo not drawn)	6.8	19	11	-3	-3	18046*	9
12	CCCCCn1nc(C)c(C=NNC(=O)c2cc(C)oc2C)c1C	-0.2	/	3	-6	/	/	0
13	O=C(CN1CCN(c2ccc(F)cc2)CC1)Nc1nccs1	6.5	-19	3	8	-15	4015	-2
14	Cc1c(Cc2ccccc2)c(=O)oc2c(C)c(OCC(=O)Nc3ccc(C#N)cc3)ccc12	-3.1	11	2	8	-11	9414	-2
15	Nc1ncnc2c1ncn2-c1ccccc1Cl	0.7	/	6	9	-22	4065	0
16	CCCn1c(SCC(=O)Nc2ccc(F)c(Cl)c2)nc(O)cc1=O	11	/	-1	0	-3	2902	-5
17	COC(=O)CC1C(=O)NCCN1C(=S)NC(=O)c1ccccc1[N+](=O)[O-] (stereo not drawn)	0.0	-13	-3	7	-30	10043	-2
18	CC1(C)Cc2nc3oc4c(=O)n(CC(=O)Nc5ccccc5)cnc4c3cc2CO1	4.9	-1	3	-3	-29	2473	1
19	COC(=O)c1cn(NC(=O)CCC2CCCC2)c(=O)c2ccccc12	1.7	-9	10	-4	-5	3734	5
20	COc1ccc(CCNC(=O)Cn2cc(C(F)(F)F)cc(Cl)c2=O)cc1OC	-1.7	1	9	-5	-26	2533	3
21	O=C(Nc1ccncc1)c1cccn(Cc2ccccc2)c1=O	3.1	7	-3	10	-14	4372	-6
22	COc1cc(C(=O)NCC(=O)NN=Cc2c(C)[nH]c3ccccc23)cc(OC)c1OC	-0.7	/	5	5	/	/	3
23	COc1cc(C(=O)NCc2nnc(SCC(=O)Nc3cccc(C)c3)o2)cc(OC)c1OC	0.7	-10	/	5	-4	4441	/
24	O=C(NC1CCCCC1)C1CC=CC2CCN(Cc3ccccc3)C(=O)C21 (stereo not drawn)	5.7	/	10	6	/	/	2
25	Cc1cccc(C)c1OCC(=O)NN=Cc1cc2c(cc1[N+](=O)[O-])OCO2	4.5	/	3	-9	/	/	8
26	CCN1CCN(CCCNC(=O)c2ccc3c(=O)n(CCc4ccccc4)c(=O)[nH]c3c2)CC1	0.3	2	3	1	0	4394	0
27	CC(C)N(C(=O)COC(=O)c1cncc(Br)c1)C(C)C	3.2	10	15	2	-20	4741	8
28	O=C(NN1C(=O)c2ccccc2NC1c1ccco1)c1ccc([N+](=O)[O-])cc1 (stereo not drawn)	6.7	1	11	3	-9	4377	1
29	COc1ccc(CNC(=O)c2cnn3c(C(F)F)cc(C)nc23)cc1OC	2.3	3	7	8	4	4203	7
30	CC(c1ccccc1)n1cncc1C(=O)O (stereo not drawn)	-0.4	-7	1	-5	-36	2518	-1

New compounds follow:
cpd	SMILES	RN4220 kill	BJeLR viability	Mtb hypoxia inh growth	Sa ugtP lethal	PrP 5UTR inh	Autofluor counter	Mtb hypoxia inh
31	CCOC(=O)C1=C(C)OC(N)=C(C#N)C1c1cncc(-c2ccc(F)cc2)c1 (stereo not drawn)	6.1	0	5	18	-59	1998	15
32	COC(=O)C1N[C@@H]([C@@H](NC(=O)COc2ccccc2)C(=O)NCc2ccc(OC)cc2)SC1(C)C (stereo partly drawn)	/	-11	/	/	-12	4115	/
33	COc1cccc(/C=N/n2nnnc2N)c1OCc1ccccc1Cl	/	0	/	/	-51	9297	/
34	COc1ccc(C(=O)NNC(=O)Cn2nnc(-c3ccc(OC)c(OC)c3)n2)cc1	-0.3	8	5	11	0	2253	-7
35	Cn1ccnc1-c1nnn(-c2ccc(F)cc2)n1	4.3	14	18	0	-46	3473	9
36	CCN(C(=O)COC(=O)c1cn(C)c2ccccc12)c1ccc(F)cc1	6.5	/	3	0	-22	3332	11
37	O=C1NCCCC1C(=O)NN=Cc1ccc(Cl)cc1 (stereo not drawn)	2.6	/	7	1	/	/	-9
38	Cc1c(C(=O)N2CCOCC2)sc2ncn(CC(=O)N3CCC(C)CC3)c(=O)c12	1.9	-3	/	8	10	2089	/
39	O=C(CCc1ccccc1)NCCSCc1c(F)cccc1Cl	-1.6	8	6	8	-7	2054	6
40	O=C(OCCOc1ccc(Br)cc1)c1cnccn1	1.8	-8	/	3	-7	6431	/
41	CCc1ccc(NC(=S)NC(=O)CC(C)C)cc1	6.3	-8	30	80	-64	2261	24
42	O=C(CN1C(=O)CSc2ccccc21)Nc1ccc2c(c1)OCCO2	2.8	-1	13	8	-39	9652	9
43	CCOC(=O)C1CCN(C(=O)COC(=O)c2cc(-c3cccs3)nn2-c2ccccc2)CC1	2.4	-7	-9	8	-16	6047	2
44	COC(=O)CC(NC(=O)Nc1ccccc1F)c1ccc2c(c1)OCO2 (stereo not drawn)	3.9	8	17	-4	-17	3844	-4
45	COc1ccc(Cc2nnc(N)s2)cc1	4.1	3	11	4	-25	3740	16
46	CCn1cc(C(=O)NCCCN(CC(C)C)CC(C)C)c(=O)c2cc(S(=O)(=O)N(C)C3CCCCC3)ccc21	-1.3	-4	2	-3	-13	6173	0
47	COc1ccc(C2=CC(c3ccc(OC)c(OC)c3)NC(=S)N2)cc1 (stereo not drawn)	4.4	7	/	0	-14	4653	/
48	CCOc1cccc(/C(O)=C2/C(=O)C(=O)N(Cc3cccnc3)C2c2ccco2)c1 (stereo not drawn)	5.8	8	-3	14	0	3205	7
49	CCc1ccc(NC(=O)CN2CC(c3ccccc3)CC2=O)cc1 (stereo not drawn)	2.4	-9	9	-2	/	4962	10
50	NC(=O)N(N)c1nc(N2CCCC2)nc(N2CCCC2)n1	6.0	/	-4	7	-24	4130	1
51	COCCNC(=O)CN(Cc1cccs1)C(=O)CCC(=O)Nc1nccs1	8.1	-11	-4	10	-19	4715	2
52	CC#C[C@]1(O)CCC2C3CCC4=CC(=O)CCC4=C3C(c3ccc(N(C)C)cc3)C[C@@]21C (stereo partly drawn)	3.4	/	4	5	/	/	1
53	O=C(c1cc2ccccc2o1)c1nc2c(n1O)CCCCC2	7.6	3	/	8	-27	4780	/
54	COc1ccc(-c2c(C#N)c(N)nc3sc(C(=O)c4ccc(C)cc4)c(N)c23)cc1	0.4	-8	1	-6	14	2655	6
55	O=C(N/N=C/c1cccnc1)c1[nH]ncc1Br	/	3	/	/	-9	3853	/
56	CCOC(=O)C1=CN(Cc2ccco2)S(=O)(=O)N(C)C1CC (stereo not drawn)	-0.6	/	3	-3	8	3830	-7
57	CCSc1nnc(NC(=O)c2cccnc2Cl)s1	7.1	5	6	2	-23	3322	8
58	CCCc1c(C)[nH]c2ccc(C(=O)O)cc2c1=S	9.0	4	9	-1	-12	4245	14
59	CC(C)NC(=O)CSc1ncccc1-c1nc2ccccc2[nH]1	0.8	-8	0	6	-20	3930	-4
60	COc1ccc(OC)c(CC(=O)Nc2cc(S(=O)(=O)N3CCCCC3)ccc2C)c1	4.1	/	-2	5	-14	2768	0

Next entries:
cpd	SMILES	RN4220 kill	BJeLR viability	Mtb hypoxia inh growth	Sa ugtP lethal	PrP 5UTR inh	Autofluor counter	Mtb hypoxia inh
61	Cc1nnc(SCCCN2C(=O)c3ccccc3C2=O)o1	-5.2	-12	-18	-2	-14	3907	-2
62	Cc1cc(C)c(NC(=O)CN2CCN(c3ccccn3)CC2)c(C)c1	3.4	2	-6	9	-19	3877	-1
63	CC1CCC2(CC1)C(Nc1cccc(Cl)c1)=NC(=S)N2CC#N (stereo not drawn)	-1.0	-9	5	-9	-9	4345	7
64	CSC1=NCCN1C(=O)Cc1cccs1	-1.1	15	/	0	-4	5636	/
65	Cc1ccc(C(=O)N/C(=C\c2cn(C)c3ccccc23)C(=O)NCCN2CCOCC2)cc1	1.4	-8	-13	2	-8	4569	-10
66	COc1ccc(/C=N/N(Cc2ccccc2)c2ccccc2)cc1O	/	-11	/	/	-15	4684	/
67	CCOc1ccc(/C=N/NC(=O)C2CCCC2)c(OCC)c1	/	-3	/	/	25	6745	/
68	C=CCc1cccc(C=NNC(=O)c2ccccc2Br)c1O	-3.4	/	1	40	/	/	3
69	CCCN(CC(=O)Nc1ccccc1C)C(=O)c1ccc(-c2ccc(C(C)=O)cc2)o1	3.3	-2	-5	7	-11	?	10
70	Cc1ccc(C(=O)NNC(=S)NC(=O)COc2ccccc2)cc1	88*	-8	-2	92*	-47	10442	2
71	O=C(Nc1sc2c(c1C(=O)c1ccccc1)CCCC2)c1cccnc1	0.5	-17	10	0	-1	2474	5
72	CC(CCc1ccccc1)NC(C)C(O)c1ccc(O)cc1 (stereo not drawn)	8.4	-14	13	1	-5	7134	2
73	COc1ccc(Cc2nc3ccc(C(=O)N4CCC[C@H]4CO)cc3o2)cc1	2.8	0	3	10	-11	6191	4
74	O=C(Nc1ccccc1F)Nc1cc(Cl)ccc1-n1cncn1	-1.2	-4	4	4	-14	2948	4

In another format: results already given.
70) Cc1ccc(C(=O)NNC(=S)NC(=O)COc2ccccc2)cc1
63) CC1CCC2(CC1)C(Nc1cccc(Cl)c1)=NC(=S)N2CC#N (stereo not drawn)
64) CSC1=NCCN1C(=O)Cc1cccs1
74) O=C(Nc1ccccc1F)Nc1cc(Cl)ccc1-n1cncn1
71) O=C(Nc1sc2c(c1C(=O)c1ccccc1)CCCC2)c1cccnc1

| assay / entry | 70 | 63 | 64 | 74 | 71 |
| --- | --- | --- | --- | --- | --- |
| RN4220 kill | 88* | -1.0 | -1.1 | -1.2 | 0.5 |
| BJeLR viability | -8 | -9 | 15 | -4 | -17 |
| Mtb hypoxia inh growth | -2 | 5 | / | 4 | 10 |
| Sa ugtP lethal | 92* | -9 | 0 | 4 | 0 |
| PrP 5UTR inh | -47 | -9 | -4 | -14 | -1 |
| Autofluor counter | 10442 | 4345 | 5636 | 2948 | 2474 |
| Mtb hypoxia inh | 2 | 7 | / | 4 | 5 |

Screening data deposited in PubChem BioAssay by several laboratories.
